Bioassay records (PubChem BioAssay)
KCNQ2 block: KCNQ2 channel blockers in CHO-K1 cells – cell-based, FluxOR thallium flux, B-score, primary screen (AID 2156); B-score at 10 µM; 20 min; active compounds read low; only compounds with negative scores are shown here; some inactives read as strong as hits; 310,000 tested, 1.1% active;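 active means fluorescence ratio B-score at most minus 3 library SDs, with starting brightness B-score within 2 library SDs, cut at about -5.5 in these data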
Target sequence (O88943 whole entry, looked up): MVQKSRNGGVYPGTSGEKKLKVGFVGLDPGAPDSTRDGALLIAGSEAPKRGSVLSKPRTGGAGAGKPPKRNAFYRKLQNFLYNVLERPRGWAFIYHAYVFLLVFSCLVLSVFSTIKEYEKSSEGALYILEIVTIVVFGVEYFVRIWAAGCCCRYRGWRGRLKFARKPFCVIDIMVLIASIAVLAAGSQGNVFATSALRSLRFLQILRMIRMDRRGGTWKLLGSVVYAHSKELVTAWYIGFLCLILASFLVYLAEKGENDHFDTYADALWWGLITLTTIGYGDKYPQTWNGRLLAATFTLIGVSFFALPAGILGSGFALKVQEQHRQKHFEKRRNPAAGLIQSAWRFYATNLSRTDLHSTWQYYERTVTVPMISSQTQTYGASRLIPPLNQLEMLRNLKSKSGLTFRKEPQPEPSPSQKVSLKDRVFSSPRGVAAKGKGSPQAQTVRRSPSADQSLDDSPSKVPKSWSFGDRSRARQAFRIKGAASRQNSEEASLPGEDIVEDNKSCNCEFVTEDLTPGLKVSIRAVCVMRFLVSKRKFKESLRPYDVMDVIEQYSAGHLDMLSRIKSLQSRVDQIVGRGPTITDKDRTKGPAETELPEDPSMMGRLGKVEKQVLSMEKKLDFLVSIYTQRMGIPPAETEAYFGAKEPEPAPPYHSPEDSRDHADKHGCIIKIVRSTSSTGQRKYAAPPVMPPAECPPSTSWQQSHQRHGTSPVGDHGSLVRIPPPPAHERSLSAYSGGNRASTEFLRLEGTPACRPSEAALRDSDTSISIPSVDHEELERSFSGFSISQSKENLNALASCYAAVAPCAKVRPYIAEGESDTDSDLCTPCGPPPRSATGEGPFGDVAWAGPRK
KCNQ2 block baseline: recorded beside KCNQ2 block, whose call it bears; B-score; measured here: initial fluorescence intensity artifact check;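 brightness before thallium and not channel activity; 0 = typical well and far values either way flag optical interference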
Starred values were filed as active, the others as inactive; i = inactive. Not all compounds are listed; the hit share may differ from the screen's.

Under each structure: KCNQ2 block	KCNQ2 block baseline
O=C1c2ccccc2C(=O)c2c1ccc1c(=O)n(C3CCCCC3)[nH]c21
    i	1.44
CSc1cccc(NC(=O)CN(Cc2ccc(Cl)cc2)S(C)(=O)=O)c1
    i	1.94
O=C(Cn1cc2c(n1)CCCCC2)N1CCc2ccccc21
    i	-0.31
CCC(=O)Nc1c2c(nn1-c1ccc(F)cc1)CS(=O)(=O)C2
    i	0.56
COC(=O)C1=C(C)N=C2SC(C)C(=O)N2C1/C=C/c1ccccc1OC (stereo not drawn)
    i	0.82
COc1ccc(C(=O)COC(=O)Cn2c(C)csc2=O)c(OC)c1
    i	-1.21
COc1ccc2[nH]c3c(c2c1)CC(C)NC3=O (stereo not drawn)
    i	-1.1
Clc1cccc(/C(Cc2nc3ccccc3[nH]2)=N\Nc2ccccc2)c1
    i	-0.83
O=C(NC(=S)NCCc1ccccc1)c1cccc(Cl)c1
    i	-0.54
O=C(NCc1ccccc1)c1ccccc1NC(=O)C1CCCCC1
    i	1.05
CC(=O)c1cccc(NC(=S)NC(=O)c2cncc(Br)c2)c1
    i	-1.1
COc1ccccc1CNC(=O)c1ccccc1OCc1ccc(F)cc1
    i	0.33
NS(=O)(=O)c1ccc(CNC(=O)C(Cc2ccccc2)NS(=O)(=O)c2ccccc2F)cc1 (stereo not drawn)
    i	0.66
CCn1c(SCc2nc(-c3ccccc3)no2)nc2ccccc21
    i	0.46
O=C(c1cn(-c2ccccc2)nc1-c1cccnc1)N1CCCCC1
    i	-1.22
Cc1cccc(N2CCN(S(=O)(=O)c3cnc[nH]3)CC2)c1C
    i	0.17
COc1cc(C(=O)NCc2cc3ccccc3n2C)cc(OC)c1OC
    i	-0.15
Cc1ccc(C2=NC3(CCCC3)NC2=S)cc1
    i	-0.78
CCOC(=O)Cn1c(=O)c2c(nc3n2CCCCN3c2ccc(OCC)cc2)n(C)c1=O
    i	-0.8
COC(=O)C(C(=O)Nc1cccc(Cl)c1C)C1CCCC1 (stereo not drawn)
    i	0.97
Cc1ccc(C(=O)NCC(=O)NC2CCCC2)cc1
    i	1.89
CN(CCN1CCOCC1)Cc1nc(-c2ccc3c(c2)OCO3)no1
    i	0.16
COC(=O)c1ccc(C(=O)O)nc1
    i	0.97
CN(C)Cc1c(C(=O)N/N=C/c2cccc(OCc3c(F)cccc3Cl)c2)nnn1-c1nonc1N
    i	2.35
COc1cccc(C(=O)Nc2cccc3cccnc23)c1OC
    i	-1.73
CC(COc1ccccc1)N1CCC(CO)(CCc2ccccc2)CC1 (stereo not drawn)
    i	1.49
CCOC(=O)/C(C(=O)Nc1ccccc1Br)=C1/NC(C)(C)Cc2ccccc21
    i	-0.36
NS(=O)(=O)c1ccc(CNC(=O)c2cnccn2)cc1
    i	1.81
CC(=O)c1ccc(N2CCN(C(=O)CN(C)S(=O)(=O)c3cnc[nH]3)CC2)cc1
    i	0.39
COc1ccc(NC(=O)CC2C(=O)N(c3ccc(OC)cc3)C(=O)N2Cc2ccc(OC)c(OC)c2)cc1 (stereo not drawn)
    i	-0.32
Cc1ccc(C(=O)CCC(=O)NCc2ccccc2)cc1
    i	-0.74
COc1cccc(CN2CCNC(=O)C2CC(=O)NC2CCOCC2)c1OC (stereo not drawn)
    i	-1.86
O=[N+]([O-])c1cccc(-c2cc(-c3cc(Br)ccc3O)[nH]n2)c1
    i	0.42
COC(=O)C1C(c2ccc(Cl)cc2)NC(c2ccc(Cl)cc2)C(C(=O)OC)S1(=O)=O (stereo not drawn)
    i	-0.23
CC1=C(C(=O)N(C)C)C(c2ccc(N3CCOCC3)cc2)NC(=O)N1 (stereo not drawn)
    i	-0.22
COCCSc1ncnc2c1oc1nc3c(cc12)COC(C)(C)C3
    i	1.79
Cc1cc(C)cc(NC(=O)CN(Cc2ccccc2)S(C)(=O)=O)c1
    i	-0.82
O=C(CCNc1n[nH]c(=O)[nH]c1=O)N/N=C\c1cccc(OCc2ccccc2)c1
    i	0.36
COc1cccc(C(=O)NCCN2CCOCC2)c1
    i	-0.79
CC(=O)Oc1ccc2nc(/C=C/c3ccc(C=O)cc3)oc(=O)c2c1
    i	-0.15
O=C(N/C(=C/c1cccs1)c1nc2ccccc2[nH]1)c1ccccc1
    i	-0.04
Cc1cccc(Nc2nnc(SC/C(O)=C(\C#N)c3nc4ccccc4[nH]3)s2)c1
    i	1.54
Cc1cccc(-c2nnc(SCC(=O)NCc3ccc4c(c3)OCO4)n2C)c1
    i	1.71
CC(C)C[C@H](NC(=O)c1nc[nH]c1C(=O)NCC(=O)OCc1ccccc1)C(=O)OC(C)(C)C
    i	-0.95
COc1ccc(C2C3=C(CCCC3=O)NC3=C2C(=O)c2ccccc23)cc1 (stereo not drawn)
    i	0.01
CCCCC(=O)NC(c1ccc(C(C)C)cc1)c1ccc2cccnc2c1O (stereo not drawn)
    i	0.33
CCOC(=O)CCc1c(C(=O)OCC)[nH]c(CC)c1C(=O)OCc1ccccc1
    i	-0.63
Cc1cc([N+](=O)[O-])nn1CCCC(=O)NC(C)c1ccccc1 (stereo not drawn)
    i	-1.05
Cc1oncc1-c1csc(-c2ccccc2)n1
    i	0.55
C=Cc1ccc(C(=O)N2CCCC(Nc3ccc4c(c3)OCCO4)C2)cc1 (stereo not drawn)
    i	0.38
COC(=O)C1Cc2c([nH]c3ccccc23)CN1 (stereo not drawn)
    i	1.66
CC(=O)N1CCC(=NNc2ccc(S(=O)(=O)N3CCOCC3)cc2[N+](=O)[O-])CC1
    i	0.86
O=C(Nc1ccccc1Br)C1CCN(C(=O)Cc2ccccc2)CC1
    i	1.02
O=C(COc1ccc(Br)cc1)NCCCNC(=O)c1cnccn1
    i	-0.09
CCOC(=O)C(=O)NCc1ccc(/C=C2/N=C(C)C(C(=O)OCC)=C2O)o1
    i	0.45
COc1ccc2c(c1)-c1c(sn(-c3ccccc3)c1=S)C(C)(C)N2
    i	0.58
O=C(CSc1nnc(-c2ccc(Br)cc2)n1CCc1ccccc1)NC1CCS(=O)(=O)C1 (stereo not drawn)
    i	0.01
COc1cc(C2=NOC(C(=O)N3CCCCCC3)C2)cc(OC)c1OC (stereo not drawn)
    -6.61*	0.64*
CON/C=C(\C=Nc1ccc(C(F)(F)F)cc1)c1ncc(C(F)(F)F)cc1Cl
    i	-0.57
CC1(C)C2CCC1(C)C(OC(=O)CC(=O)O)C2 (stereo not drawn)
    -8.22*	0.33*

4 compounds already listed, arranged by the number in KCNQ2 block baseline, high to low:
Structure	KCNQ2 block	KCNQ2 block baseline
CC(=O)N1CCC(=NNc2ccc(S(=O)(=O)N3CCOCC3)cc2[N+](=O)[O-])CC1	i	0.86
C=Cc1ccc(C(=O)N2CCCC(Nc3ccc4c(c3)OCCO4)C2)cc1 (stereo not drawn)	i	0.38
CCCCC(=O)NC(c1ccc(C(C)C)cc1)c1ccc2cccnc2c1O (stereo not drawn)	i	0.33
COC(=O)C1C(c2ccc(Cl)cc2)NC(c2ccc(Cl)cc2)C(C(=O)OC)S1(=O)=O (stereo not drawn)	i	-0.23

Other entries:
Under each structure: KCNQ2 block	KCNQ2 block baseline
O=C(NCCN1CCN(C(=O)c2cccs2)CC1)c1cccs1
    i	-0.02
COc1ccc(C2CC(c3cccs3)=NN2c2ccc(F)cc2)cc1OC (stereo not drawn)
    i	0.81
COc1ccc(/C=N/n2c(C)nc3c([nH]c4ccccc43)c2=O)cc1CN1CCCC(C)(C)C1
    i	0.08
CN(C)C(=O)c1ccc(-c2n[nH]c(=O)c3ccccc23)cc1
    i	6.09
CNC(=O)NC(=O)COC(=O)CCCSc1nc2ccccc2s1
    i	1.18
CCC(C)Oc1nc(C)cc(C)c1S(=O)(=O)c1ccccc1C (stereo not drawn)
    i	0.4
COc1ccc(N2CC(NS(=O)(=O)c3cccnc3)CC2=O)cc1OC (stereo not drawn)
    i	-2.53
CN(CC(=O)NCc1ccccc1Cl)S(=O)(=O)c1cccs1
    i	1.14
CC(C)C[C@@H](C(=O)NC1CCN(Cc2ccccc2)CC1)N1C(=O)N2CCc3c([nH]c4ccccc34)[C@@]2(C)C1=O
    i	-0.13
C=Cc1ccc(Cn2nc(-c3ccc(C)cc3)ccc2=O)cc1
    i	1.74
COc1ccc(N2C(=O)CC(N3CCC(C(N)=O)CC3)C2=O)cc1 (stereo not drawn)
    i	-0.06
Cc1nc2ccccn2c1C(=O)CSc1cccc(Cl)c1
    i	-0.09
O=C(O)c1ccc(C2Nc3ccccc3C(=O)N2Cc2ccccc2)cc1 (stereo not drawn)
    i	-1.98
O=C(Nc1ccc2nc3n(c(=O)c2c1)CCCCC3)c1ccccc1[N+](=O)[O-]
    i	0.12
COc1ccc(/C(C)=N\NS(=O)(=O)c2ccccc2)cc1OC
    i	-0.35
CCN(CC)CCNC(=O)CCN1N=C(c2ccccc2)CCC1=O
    i	0.41
O=C(Nc1ccccc1)c1ccccc1Oc1ccc(C(F)(F)F)cc1[N+](=O)[O-]
    i	-0.21
COc1cc2c(c(OC)c1OC)-c1ccc(OC)c(=O)cc1[C@@H](N(C)CC#CCO)CC2
    i	0.39
CNC(=S)NNC(=O)Cc1ccccc1
    i	2.54
CN1CCNC(=O)C1CC(=O)N1CC=C(c2ccc(F)cc2)CC1 (stereo not drawn)
    i	0.61
Cc1cc(C(F)(F)F)cc(NNC(=O)NC(=O)c2ccccc2Cl)n1
    i	-2.3
Cc1cc(N)n2ncc(-c3ccc(Cl)cc3)c2n1
    i	0.76
COc1ccc2c(C)cc(SCc3c(C)noc3C)nc2c1
    -10.4*	0.97*
O=[N+]([O-])c1ccccc1N/N=C1\CCc2ccccc21
    i	-0.02
Nc1cc[n+](CC(=O)Nc2ccccc2)cc1
    i	2.83
Cc1csc(NC(=O)CCC(=O)N(CC(=O)NC2CCCC2)Cc2ccccc2)n1
    i	0.47
CC(Oc1ccc2ccccc2c1)C(=O)N/N=C/c1cccnc1 (stereo not drawn)
    i	-0.14
CCSc1ccccc1C(=O)N1CCN(Cc2ccc3c(c2)OCO3)CC1
    i	-1.52
CCC/C=C(\CCC)C(NC(=O)c1ccc(C(=O)OC)cc1)c1ccc(C(=O)OC)cc1 (stereo not drawn)
    -7.2*	-0.02*
O=C(NC1CCCCCC1)c1ccc2nc3cc(Cl)ccc3c(=O)n2c1
    i	2.41
COc1ccc(CCNC(=O)CSc2cn(Cc3cccc(C)c3)c3ccccc23)cc1OC
    i	-1.81
CCC(C(=O)N/N=C/c1cccnc1)c1ccccc1 (stereo not drawn)
    i	0.34
COC(=O)Oc1ccc(/C=N/NC(=O)CSCc2ccccc2Br)cc1OC
    i	-0.03
Cc1ccc(SCC(=O)NCCCc2ccccc2)cc1
    i	-2.25
COc1cccc(NC(=O)CN(C)C(=O)c2ccc3c(c2)S(=O)(=O)N=C2CCCCCN23)c1
    i	-2.04
CCc1nnc(NC(=O)CN2C(=O)CCC2=O)s1
    i	0.08
Cc1ccc(-n2cccc2C(=S)N=P(N(C)C)(N(C)C)N(C)C)cc1
    i	1.51
O=C(NNC(=O)C(Cl)Cl)c1cnn(-c2ccccc2)c1C(F)(F)F
    i	-0.4
COc1ccccc1C(=O)Nc1ccc(Oc2nnc(-c3ccc(C)cc3)c3ccccc23)cc1
    i	-1.03
CCC(Sc1nc2ccccc2o1)C(=O)O (stereo not drawn)
    i	0.02
COc1ccc(-c2csc(-c3cc4ccccc4oc3=N)n2)cc1
    i	-0.95
O=C(COCc1cc(-c2ccc3c(c2)OCO3)on1)N1CCN(c2ccccc2)CC1
    i	-0.32
Cc1ccc(S(=O)(=O)N(C)C)cc1NC(=O)CN1C(=O)NC2(CCCc3ccccc32)C1=O (stereo not drawn)
    i	0.2
CCCNC(=O)C(=O)Nc1ccc2c(c1)N(S(=O)(=O)c1cccs1)CCC2
    i	0.7
CC1(C)CC(=O)C(C(O)c2cccc([N+](=O)[O-])c2)C(C)(C)N1 (stereo not drawn)
    i	-2.8
CCOc1cc(/C=N/NC(=O)C(N)=O)cc(Br)c1O
    i	1.33
COc1ccc(C2/C=C\CN(C(=O)Oc3ccc(C(F)(F)F)cc3)CC(=O)N2Cc2ccc(F)cc2)cc1 (stereo not drawn)
    i	0.71
Cc1ccc(C)c(NC(=O)CN(C)C(=O)c2ccccc2OCc2ccccc2Cl)c1
    i	1.38
Cc1ccc(C(C(=O)NC2CCCCC2)N(CC2CCCO2)C(=O)CNC(=O)c2cccs2)cc1 (stereo not drawn)
    i	-1.2
Cc1nn(C(=O)CCCn2cc([N+](=O)[O-])cn2)c(C)c1Cl
    i	0.37
CSc1c(CC(=O)NCCCO)n(Cc2ccccc2)c2ccccc12
    i	0.05
CCOc1ccc2nc(N3CCC(C(=O)Nc4nnc(CC)s4)CC3)sc2c1
    i	1.25
COCCN(C(=O)C1CC1)c1nnc(-c2ccc(C)cc2)s1
    i	0.99
COc1ccc(Br)cc1C(=O)Nc1ccccc1N1CCCC1
    i	0.04
O=C1N=C(N2CCOCC2)S/C1=C\c1ccncc1
    i	-1.6
O=C1c2ccccc2-c2onc3ccc(NCCCn4ccnc4)c1c23
    i	2.35
COc1ccc(NC(=O)CCCC(=O)OCC(F)(F)C(F)F)cc1
    i	1.05

Molecules from the list above that have a thiophene ring, fused or not (6):
Under each structure: KCNQ2 block	KCNQ2 block baseline
O=C(N/C(=C/c1cccs1)c1nc2ccccc2[nH]1)c1ccccc1
    i	-0.04
O=C(NCCN1CCN(C(=O)c2cccs2)CC1)c1cccs1
    i	-0.02
COc1ccc(C2CC(c3cccs3)=NN2c2ccc(F)cc2)cc1OC (stereo not drawn)
    i	0.81
CN(CC(=O)NCc1ccccc1Cl)S(=O)(=O)c1cccs1
    i	1.14
CCCNC(=O)C(=O)Nc1ccc2c(c1)N(S(=O)(=O)c1cccs1)CCC2
    i	0.7
Cc1ccc(C(C(=O)NC2CCCCC2)N(CC2CCCO2)C(=O)CNC(=O)c2cccs2)cc1 (stereo not drawn)
    i	-1.2
